Screens from PubChem BioAssay.
TAR Tat displ: TAR RNA-Tat peptide displacers, HIV-1, primary screen, biochemical, FRET, FAM/TAMRA-labeled Tat. HIV-1 TAR RNA, Tat peptide displacement FRET; active compounds read high. 100,000 compounds, 0.6% hits. z-score (concentration not given with the values);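 also: score is relative to mean and SD of negative controls; some compounds called inactive have numbers as strong as hits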
CDC25B-CDK2 inh: primary biochemical HTRF screen for blockers of M-phase inducer phosphatase 2 binding to CDK2/cyclin A | P30305+P24941 | HTRF CDC25B-CDK2/CyclinA binding, anti-His/anti-Flag; active compounds read high | z-score (concentration not given with the values) | 94,000 compounds, 0.72% hits;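 also: score is relative to mean and SD of negative controls; strong numbers were not always called active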
An asterisk follows results filed as active; x = no result given.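 The calls were made as follows: active = z-score from 3 up in half or more of its runs; inactive = the rest.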

SMILES | TAR Tat displ | CDC25B-CDK2 inh
c1ccc(-c2noc(NCCN3CCc4ccccc4C3)n2)cc1 | 0.43 | x
Cc1cc(C)nc(Nc2ccc(S(=O)(=O)Nc3ccccn3)cc2)n1 | 0.51 | 0.19
CCOc1ccc(-n2c(=O)c3c4c(sc3n(Cc3cc(=O)n5ccccc5n3)c2=O)CCC4)cc1 | 1.9 | -0.97
CC(NS(=O)(=O)c1ccc(Cl)cc1)c1nc(-c2ccc(C(C)(C)C)cc2)no1 (stereo not drawn) | 2 | -0.86
CCc1ccc(-c2cc(C)no2)cc1S(=O)(=O)N(C)c1ccc(C)cc1 | 1.3 | x
O=C1CC(c2ccc(F)c(Br)c2)c2cc3c(cc2N1)OCO3 (stereo not drawn) | 2.1 | -0.18
O=C(NCC1CCCO1)Nc1ccc2sc(NS(=O)(=O)c3ccccc3)nc2c1 (stereo not drawn) | 0.55 | x
O=C1c2cccnc2C(=O)N1Cc1ccc(F)cc1S(=O)(=O)NCc1ccc(F)cc1 | -0.09 | x
Cc1cccc(NC(=O)c2cc3c(s2)-c2ccccc2SC3)n1 | x | -2.6
Cc1ccc(C)c(NC(=O)c2cc(=O)c3c(C)cc(C)cc3o2)c1 | -0.27 | 0.48
Cc1[nH]n(-c2nc3ccccc3[nH]2)c(=O)c1Cc1ccccc1Cl | 1.8 | x
CC1CCN(c2ccc(NS(=O)(=O)c3ccc4c(c3)CCCC(=O)N4)cc2)CC1 | -0.08 | x
CCC1c2ccc(C)n2CCN1C(=O)Nc1cc(Cl)c(OC)cc1OC (stereo not drawn) | -9.6 | -1.2
CSc1cccc(N2C(=O)C3CCCN3C2=S)c1 (stereo not drawn) | x | -1.3
Cc1ccc2c(c1)NC(SCc1ccccc1C)=NS2(=O)=O | 0.29 | x
CCOC(=O)c1cn(CC(C)C)c(=O)c2ccccc12 | 0.94 | -0.02
Brc1c(CSc2nncn2-c2ccccc2)nc2ncccn12 | x | -2
N#CC1=C(c2ccc(Cl)cc2)COC1=O | x | -1
Cc1ccc(O)c(C2Nc3ccccc3-c3cc(C)nn32)c1 (stereo not drawn) | 2.5 | -0.8
O=C(O)CNS(=O)(=O)c1ccc2c(c1)C(=O)c1cc(S(=O)(=O)NCC(=O)O)ccc1-2 | x | -6.1
CO[C@H]1C[C@H](O[C@H]2[C@H](C)[C@@H](OC3O[C@H](C)C[C@H](N(C)C)[C@H]3O)[C@@H](C)C[C@]3(CO3)C(=O)[C@H](C)[C@@H](O)[C@@H](C)[C@@H](C)OC(=O)[C@@H]2C)O[C@@H](C)[C@@H]1O (stereo partly drawn) | -0.99 | x
Cc1ccc(-c2onc(C)c2C)cc1S(=O)(=O)N1CC(C)Oc2ccccc21 (stereo not drawn) | 0.5 | x
Cc1ccc(-c2nc(S(=O)(=O)c3ccc(Cl)cc3)c(N3CCOCC3)o2)cc1 | 1.1 | -1.1
COc1ccc(-c2csc3ncnc(NCCCO)c23)cc1 | 1.3 | x
COC(=O)C1=C(C)Nc2ncnn2C1c1cccc(O)c1 (stereo not drawn) | 0.19 | -1.4
Cc1nnc(SCc2ccco2)c2c1nnn2Cc1ccccc1Cl | -3.1 | 0.25
COc1ccc(N2CC(c3nc4ccccc4n3CCN3CCOCC3)CC2=O)cc1 (stereo not drawn) | 0.78 | -1.3
COc1ccc(-c2oc3ncn4nc(-c5cccnc5)nc4c3c2-c2ccc(OC)cc2)cc1 | 1.5 | -0.69
O=C(NCO)c1cccnc1 | 2.2 | x
O=C(OC1=CN(Cc2ccccc2)S(=O)(=O)c2ccccc21)c1ccc(Cl)cc1 | -1.1 | -1.8
Cc1ccc(-c2onc(C)c2C)cc1S(=O)(=O)Nc1cccc(F)c1 | 1.6 | x
Cn1cccc1-c1cc2n(n1)CCC(=O)N2CCCC(=O)NCC1CCCO1 (stereo not drawn) | -0.12 | x
O=C1C2ON(c3ccccc3)C(c3ccccc3O)C2C(=O)N1c1ccc(Br)cc1 (stereo not drawn) | 1.5 | 0.56
COc1ccc(OC)c(S(=O)(=O)Nc2c(C)nc3nc(C)[nH]n3c2=O)c1 | 0.84 | -0.06
Cc1cc(N)c(-n2cc3c(=O)n(C)c(=O)n(C)c3c2)cc1C | x | -2.5
C#C[C@]1(O)CC[C@H]2[C@@H]3CCc4cc(OC)ccc4[C@H]3CC[C@@]21C | -1.4 | x
Cc1ccc(-c2nc(SCC(=O)Nc3cc(C)on3)c3c(=O)n(C)c(=O)n(C)c3n2)cc1 | 0.89 | x
Nc1ncnc2c1nc(Sc1ccc(Cl)cc1)n2[C@H]1O[C@H]2COP(=O)(O)O[C@@H]2[C@@H]1O | 1.8 | x
COc1ccc(C2/C(=C(\O)c3ccc(F)cc3)C(=O)C(=O)N2Cc2cccnc2)cc1OC (stereo not drawn) | 1.6 | -0.11
CCc1ccc(N2C(=O)N(Cc3cc(=O)n4ccccc4n3)c3ccccc3S2(=O)=O)cc1 | 1.7 | x
Cc1cn2c(=O)cc(CSc3nnc(NC(=O)CCc4ccccc4)s3)nc2s1 | 1.2 | x
CC(=O)N1CCC2(CC1)OC(=O)C(C)=C2C(=O)Nc1cc(F)ccc1F | 1.8 | x
O=C(NCc1ccco1)c1ccc(CN2CC(=O)N3CSCC3C2=O)cc1 (stereo not drawn) | -0.21 | x
Cc1ccc(-n2nnc(-c3nc(-c4ccccc4)no3)c2C)cc1F | 0.59 | x
N#CC1C(=O)NC(N2CCN(Cc3ccc4c(c3)OCO4)CC2)=NC12CCCCC2 (stereo not drawn) | -0.73 | 1.3

Shown as labelled records: two of the compounds above.
O=C(NCc1ccco1)c1ccc(CN2CC(=O)N3CSCC3C2=O)cc1 (stereo not drawn)
  TAR Tat displ = -0.21	CDC25B-CDK2 inh = x

CCc1ccc(N2C(=O)N(Cc3cc(=O)n4ccccc4n3)c3ccccc3S2(=O)=O)cc1
  TAR Tat displ = 1.7	CDC25B-CDK2 inh = x

Structural class: the compounds so far with a Cl atom (8)
SMILES | TAR Tat displ | CDC25B-CDK2 inh
CC(NS(=O)(=O)c1ccc(Cl)cc1)c1nc(-c2ccc(C(C)(C)C)cc2)no1 (stereo not drawn) | 2 | -0.86
Cc1[nH]n(-c2nc3ccccc3[nH]2)c(=O)c1Cc1ccccc1Cl | 1.8 | x
CCC1c2ccc(C)n2CCN1C(=O)Nc1cc(Cl)c(OC)cc1OC (stereo not drawn) | -9.6 | -1.2
N#CC1=C(c2ccc(Cl)cc2)COC1=O | x | -1
Cc1ccc(-c2nc(S(=O)(=O)c3ccc(Cl)cc3)c(N3CCOCC3)o2)cc1 | 1.1 | -1.1
Cc1nnc(SCc2ccco2)c2c1nnn2Cc1ccccc1Cl | -3.1 | 0.25
O=C(OC1=CN(Cc2ccccc2)S(=O)(=O)c2ccccc21)c1ccc(Cl)cc1 | -1.1 | -1.8
Nc1ncnc2c1nc(Sc1ccc(Cl)cc1)n2[C@H]1O[C@H]2COP(=O)(O)O[C@@H]2[C@@H]1O | 1.8 | x

Continued.
SMILES | TAR Tat displ | CDC25B-CDK2 inh
CCOC(=O)c1sc(N2CCN(CC)CC2)nc1N | 0.68 | 0.14
CCCSCCCn1cnc2c([nH]c3ccc(C)cc32)c1=O | 0.31 | -0.41
COc1ccc(CNS(=O)(=O)c2cc(-c3onc(C)c3C)ccc2OC)cc1 | 0.96 | x
CCOC(=O)CCc1c(C)nn(-c2ccc3nncn3n2)c1C | 2 | -0.55
O=c1c(Nc2ccccc2)c(-c2ccc3c(c2)CCCC3)c1=O | -1.9 | x
O=C(CCC(=O)N1c2ccccc2NC2=C(C(=O)CCC2)C1c1ccco1)NCc1ccccn1 (stereo not drawn) | 1.3 | x
COc1ccc(Cl)cc1NS(=O)(=O)c1c(C)nc2sccn2c1=O | 1.9 | x
OCc1sccc1Oc1ccccc1 | x | -0.86
Cc1ccc(N=P(c2c(C)nn(-c3ccccc3)c2C)(N2CCOCC2)N2CCOCC2)cc1C | x | -0.81
O=C(CN1C(=O)c2ccccc2C1=O)Oc1cccc(-c2cnc3ccccc3n2)c1 | x | -13
O=c1[nH]c(=S)[nH]c(O)c1/C=C1\C=Nc2ccccc21 | x | -1.4
CC(C)N1CCn2c(nc3cc(NC(=O)C(C)(C)C)ccc32)C1 | -0.96 | -2.3
CCCN(CCC)S(=O)(=O)c1cccc(-c2cn3cc(C)ccc3n2)c1 | 0.18 | -0.4
CC(=O)NC1=NN(C(C)=O)C(c2cc(C)ccc2OCCOc2ccc(C)cc2C)S1 (stereo not drawn) | 1.7 | 0.91
CCN1C(=O)Cc2cc(NS(=O)(=O)c3ccc(C(C)(C)C)cc3)ccc21 | 0.83 | x
CC(C)(C)c1ccc(C(=O)Nc2cnc3sc4cc(Cl)ccc4n3c2=O)cc1 | 0.34 | -0.06
CCn1c(CC2C(=O)N(C)c3ccccc32)nc2ccccc2c1=O (stereo not drawn) | -1 | -0.67
CCOc1cc(/C=N/N2C(=O)c3ccccc3C2=O)ccc1O | x | -0.84
O=C(Nc1ccc(Br)cc1)Nc1nnc(N2CCCC2)s1 | 0.04 | -2.7
O=C1CC(N2CCN(c3cccc(C(F)(F)F)c3)CC2)C(=O)N1c1cccc(Br)c1 (stereo not drawn) | x | -1.1
COc1ccc(NC2=NS(=O)(=O)c3ccccc32)cc1 | x | -1.1
O=C1CC(c2ccncc2)c2cc3c(cc2N1)OCCO3 (stereo not drawn) | 0.77 | -1
CCOC(=O)c1c(C)n(C)c2c1cc(OC(=O)C(C)C)c1ccccc12 | x | -0.59
CC(C)CC(C(=O)N1CCc2ccccc21)N1Cc2ccccc2C1=O (stereo not drawn) | -0.69 | x
COc1ccc(OCCn2nnc3sc4c(c3c2=O)CCCC4)cc1 | 3.3* | 0.44
O=C(c1ccco1)N1CCN(C(=O)c2cc(S(=O)(=O)N3CCSCC3)ccc2Cl)CC1 | 2 | x
COc1ccccc1-c1c(C(F)(F)F)oc2c(CN3CCCC3)c(O)ccc2c1=O | 0.26 | -4.3
COc1cc(NS(=O)(=O)c2cc(-c3cc(C)no3)ccc2C(C)C)cc(OC)c1 | -0.39 | x
C=CCSc1nc(=O)c2c(n1C)NC(=O)CC2c1ccccc1OC(C)C (stereo not drawn) | 1.7 | 0.46
CSc1ccc(C2OC3=C(C(=O)CC(C)(C)C3)C(N)=C2C#N)cc1 (stereo not drawn) | x | -2.1

Reformatted as tab-separated lines: four of the compounds above.
SMILES	TAR Tat displ	CDC25B-CDK2 inh
CCOC(=O)c1cn(CC(C)C)c(=O)c2ccccc12	0.94	-0.02
Brc1c(CSc2nncn2-c2ccccc2)nc2ncccn12	x	-2
N#CC1=C(c2ccc(Cl)cc2)COC1=O	x	-1
Cc1ccc(O)c(C2Nc3ccccc3-c3cc(C)nn32)c1 (stereo not drawn)	2.5	-0.8

More results follow.
SMILES | TAR Tat displ | CDC25B-CDK2 inh
CCc1nnc2c(NC3CCCCC3)nc3ccccc3n12 | -0.84 | x
Cc1cc(NS(=O)(=O)c2cc(-c3noc(C)n3)sc2C)no1 | 0.04 | x
CC1=Nc2ccccc2NC(=O)C1Sc1nc2ccccc2s1 (stereo not drawn) | x | -0.02
S=C1NCN(CCc2ccccc2)CN1CCCN1CCOCC1 | x | 0.4
c1ccc2c(c1)ccc1nnc(SCc3ccc4c(c3)OCCO4)n12 | x | 0.54
CCc1c(O)c2ccccc2n(-c2ccccc2)c1=O | x | 3.5
Cc1ccc(C)c(NC(=O)N2CC3CCCN3c3ccccc32)c1 (stereo not drawn) | -1.2 | x
O=C(O)Cn1c(=O)[nH]c2c(-c3ccccc3)c[nH]c2c1=O | -0.72 | 1.4
CC(C)C[C@H](N)C(=O)N[C@@H](C)C(=O)O | 2.7 | x
Cc1nn(C)c(C)c1CNS(=O)(=O)c1cccs1 | 0.33 | x
Cc1ccn2c(NC3CCCCC3)c(-c3ccncc3)nc2c1 | -0.29 | -0.73
Cc1ccc(C(=O)c2cn(Cc3ccc(F)cc3)c3cc4c(cc3c2=O)OCO4)cc1 | 0.22 | 0.24
Cn1c2ccccc2c2cnn(CC(=O)NCCCN3CCCC3)c(=O)c21 | 1.3 | -1
CCOC(=O)c1cc(-c2csc(N/N=C/c3ccc(Cl)cc3)n2)on1 | x | -0.01
CCN(CC)S(=O)(=O)c1ccc2oc(C(=O)NC3CC3)c(C)c2c1 | x | 0.64
CN(C)c1ccc(-c2nnc(SCc3ccccc3)o2)cc1 | 0.27 | -1.6
Cc1nn(-c2ccccc2)c2c1C(c1cccnc1)C(C#N)=C(N)O2 (stereo not drawn) | 0.33 | -0.38
CCc1nn(CC(=O)Nc2cc(C)cc(C)c2)c(=O)c2cc3sccc3n12 | x | -3.8
CC(C)CC(=O)Nc1c(C(=O)NC(C)(C)C)oc2ccccc12 | 0.21 | -1.1
O=C(CSCCSCC(=O)c1ccc(F)cc1)c1ccc(F)cc1 | x | -2.3
CC(C(=O)N1CCN(c2ccc(Cl)cc2)CC1)n1sc2ccccc2c1=O (stereo not drawn) | 3.2 | -0.48
O=C1c2oc3ccccc3c(=O)c2C(c2cccc(OCc3ccccc3)c2)N1c1ccccn1 (stereo not drawn) | 0.9 | -1.5
CN1C(=O)Cc2cc(S(=O)(=O)CCC(=O)NC3CCCc4ccccc43)ccc21 (stereo not drawn) | -0.49 | x
Brc1cccc(-c2nn3c(-c4ccncc4)nnc3s2)c1 | 1.1 | -0.36
O=C(Cn1ccc2cc(S(=O)(=O)N3CCCC3)ccc21)NCCC1=CCCCC1 | 0.89 | x
Cc1cc2c3c([nH]c2cc1S(=O)(=O)NCCCc1ccco1)CCCC3=O | 1.6 | x
O=C(NCC1CCCO1)C1CCN(c2ccc(-c3cccs3)nn2)CC1 (stereo not drawn) | 1.2 | x
O=C(Nc1ccc(S(=O)(=O)Nc2nccs2)cc1)c1csnn1 | -0.65 | 0.74
CCc1nn(CC(=O)NCCCOC)c(=O)c2cc3sccc3n12 | -1.3 | 0.6
